Assay outcomes as filed in PubChem BioAssay.
Rce1 inh = inhibitors of yeast Ras-converting enzyme; Q03530; yeast membranes, quenched prenylated peptide cleavage fluorescence; calls only; 290,000 compounds, 0.27% hits;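 active = fall in fluorescence gain of 50% or more versus controls, with final raw signal at or below 3038400; inconclusive = same 50% fall but final raw signal above 3038400; inactive = fall in fluorescence gain under 50%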;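 note: plate controls were neutral control wells for no effect and wells lacking membranes for full effect; tested at 10 µM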
Target sequence (Q03530 whole entry, looked up): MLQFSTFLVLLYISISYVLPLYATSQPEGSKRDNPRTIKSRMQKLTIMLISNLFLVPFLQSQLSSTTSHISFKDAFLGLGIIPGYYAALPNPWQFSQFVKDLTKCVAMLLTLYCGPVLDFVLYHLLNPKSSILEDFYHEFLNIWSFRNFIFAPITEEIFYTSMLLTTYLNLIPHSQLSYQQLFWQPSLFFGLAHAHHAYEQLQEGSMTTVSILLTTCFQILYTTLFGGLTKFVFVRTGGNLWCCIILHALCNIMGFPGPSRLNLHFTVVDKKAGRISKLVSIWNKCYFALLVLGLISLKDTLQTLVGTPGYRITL
MT1-MMP act inh = blocks activation of human MT1-MMP | HT1080 RFP-PRO-GFP cells, GFP/RFP ratio fluorescence, overnight; percent of plate control window, DMSO zero | AID 651647 | GFP/RFP ratio change, % at 20 µM | 360,000 compounds, 0.061% hits | P50281;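 active = GFP/RFP ratio change of at least 30% with cell ATP level not reduced by more than half and red fluorescence within 50% of control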; note: strong numbers were not always called active
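Assay system: HT1080 RFP-PRO-GFP cells | Dosing: 20 µM single dose, 1% DMSO | Incubation: Cells overnight before dosing, compound overnight, 37 °C, 5% CO2 | Evaluation: GFP/RFP fluorescence ratio | Control set: DMSO-only wells and HT1080 RFP-L50D-GFP cell wells as references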
CSC inhib = blocks cancer stem cells; cancer stem cell-like cells viability, luminescence; 300,000 compounds, 1.1% hits; AID 2717; inhibition, % at 7.5 µM;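 active = mean at 75% or more and at least half the replicates too; inconclusive = mean and replicates disagree; tested in HMLE shEcad cells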;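 note: 0% = median of negative and 100% = median of positive control wells; the first replicate is given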
eIF4H inh = inhibitors of RNA binding by human eIF4H. Q15056. inhibition, % at 35 µM. AID 2012. eIF4H fluorescence polarization binding assay. 290,000 compounds, 0.94% hits;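 active = 50% or more with normal probe brightness, or confirmed in later tests; inconclusive = above 50% with abnormal brightness, or retests that disagree; inactive = below 50% or failed in later tests; about a fifth of its hits are not listed in these tables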;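 note: calls also rest on retests at 20 µM and on dose response follow-up; 0% = protein and probe with vehicle and 100% = probe without protein; strong numbers were not always called active; many hits fall short of the cut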
HIV Env fusion = blocks HIV Env-driven cell-cell fusion | 360,000 compounds, 1.1% hits | AID 651610 | HeLa-JRFL Env/CEM21 cell fusion, luciferase | inhibition, % at 12.3 µM;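 active = mean replicate inhibition score of at least 50 and every replicate individually at or above 50; inconclusive = only one of the two criteria met; inactive = mean below 50 and not all replicates reaching 50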;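 note: 0% = plate neutral controls and 100% = maraviroc near 300 nM; one replicate is shown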
PABP polyA inh = blocks human PABP binding to poly(A) RNA | P11940 | fluorescence polarization | inhibition, % at 35 µM | 290,000 compounds, 1% hits | AID 2014;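 active = 50% or more with normal probe brightness, or confirmed in later tests; inconclusive = above 50% with abnormal brightness, or retests that disagree; inactive = below 50% or failed in later tests; about a fifth of its hits are not listed in these tables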;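 note: calls also rest on retests at 20 µM and on dose response follow-up; controls were probe without protein and protein plus probe with vehicle; some compounds called inactive have numbers as strong as hits; many hits fall short of the cut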
UUG fidelity = alters start codon recognition fidelity in yeast | S. cerevisiae UUG-firefly luciferase reporter, luminescence/redox ratio | activity score, % at 18.7 µM | 350,000 compounds, 0.13% hits | AID 602363;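 active = replicate mean at a twofold rise or more, about +100% in these data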;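 note: firefly luciferase made from a UUG start codon reports start codon fidelity; reporter light over untreated wells divided by growth signal over untreated wells; some hits fall short of that in this replicate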
eIF4H inh retest = further read-out of eIF4H inh, marked with its call; inhibition, %; compound at 20 µM; confirmation average;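 mean of two retest wells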
PABP polyA inh retest = further read-out of PABP polyA inh, marked with its call; inhibition, %; compound at 20 µM; confirmation repeats;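 mean of two retest wells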
MT1-MMP act inh RFP = second read-out of MT1-MMP act inh, no call of its own (marks repeat the call); RFP signal change, %; measured here: RFP expression control read;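 0 = vehicle wells; hits needed this value within 50% of zero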
Numbers without * were called inactive; i = inactive; ? = inconclusive; / = no result given.

SMILES | Rce1 inh | MT1-MMP act inh | MT1-MMP act inh RFP | CSC inhib | eIF4H inh | HIV Env fusion | PABP polyA inh | UUG fidelity | others
C/C(=N\Nc1cccc(C(=O)O)c1)c1ccc2c(c1)Nc1ccccc1S2 | i | 0 | -2 | 4 | 51 | / | 39 | 3 | eIF4H inh retest=4;PABP polyA inh retest=31
N#Cc1cc2c([nH]c1=S)CCCC2 | i | -1 | 1 | -4 | 63 | / | 0 | / | eIF4H inh retest=-1;PABP polyA inh retest=9
Cc1cc(C)c(C#N)c(Nc2ccccc2Cl)n1 | / | 1 | 2 | -16 | 2 | / | 3 | -2
Cc1c(NC(=O)CSc2nnnn2C)c(=O)n(-c2ccccc2)n1C | i | 1 | 3 | -14 | 1 | / | -12 | -19
CC(C)N1C(=O)S/C(=C/c2ccc3c(c2)n(C)c(=O)n3C)C1=O | i | 13 | 4 | 8 | -3 | -25 | -5 | -3
O=C(c1ccccn1)N1CCCC(N2CCN(c3cccc(C(F)(F)F)c3)CC2)C1 (stereo not given) | i | 1 | 0 | 1 | -2 | -1 | -3 | -6
N#C/C(=C\c1ccccc1O)C(=O)Nc1cccnc1 | i | 0 | 3 | 8 | 5 | 8 | 0 | -29
COC(=O)[C@]1(C)N[C@H](CN(C)C(=O)C2CCCCC2)[C@@H]2C(=O)N(Cc3ccccc3)C(=O)[C@@H]21 | / | 1 | 4 | / | / | 8 | / | -6
CS(=O)(=O)c1ccc(Cl)c(NC(=O)C2CC(=O)N(c3ccc4c(c3)OCCO4)C2)c1 (stereo not given) | i | -5 | 1 | / | -9 | / | -10 | 10
CC(C)c1ccc(NC(=O)Cn2nnc(C(=O)NCc3ccco3)c2N)cc1 | i | 1 | 2 | -12 | -1 | 0 | 10 | -18
Nc1ncnc2c1ncn2[C@@H]1O[C@H](C(=O)NS(=O)(=O)c2cccc(F)c2)[C@@H](O)[C@H]1O | / | 0 | 2 | / | / | 10 | / | -7
COc1cc(OC)c(NC(=O)CN(C)S(=O)(=O)c2ccc(-c3ccc(=O)[nH]n3)s2)cc1Cl | i | 2 | -2 | -5 | 5 | 0 | 0 | 0
O=S(=O)(CCN1CCOCC1)c1ccccc1 | i | 0 | 2 | -2 | 1 | 19 | 4 | -14
O=C(O)c1ccc(S(=O)(=O)N2CCC(n3nnc4cc(C(F)(F)F)ccc43)CC2)cc1 | i | -2 | 4 | / | -2 | 8 | 2 | -13
Cc1coc2cc3oc(=O)c(CCC(=O)N4CCC(C(=O)O)(c5ccccc5)CC4)c(C)c3cc12 | i | -4 | -1 | -8 | 0 | / | 16 | -14

Overlap with the part before: six compounds, then new ones.
SMILES | Rce1 inh | MT1-MMP act inh | MT1-MMP act inh RFP | CSC inhib | eIF4H inh | HIV Env fusion | PABP polyA inh | UUG fidelity | others
CC(C)c1ccc(NC(=O)Cn2nnc(C(=O)NCc3ccco3)c2N)cc1 | i | 1 | 2 | -12 | -1 | 0 | 10 | -18
Nc1ncnc2c1ncn2[C@@H]1O[C@H](C(=O)NS(=O)(=O)c2cccc(F)c2)[C@@H](O)[C@H]1O | / | 0 | 2 | / | / | 10 | / | -7
COc1cc(OC)c(NC(=O)CN(C)S(=O)(=O)c2ccc(-c3ccc(=O)[nH]n3)s2)cc1Cl | i | 2 | -2 | -5 | 5 | 0 | 0 | 0
O=S(=O)(CCN1CCOCC1)c1ccccc1 | i | 0 | 2 | -2 | 1 | 19 | 4 | -14
O=C(O)c1ccc(S(=O)(=O)N2CCC(n3nnc4cc(C(F)(F)F)ccc43)CC2)cc1 | i | -2 | 4 | / | -2 | 8 | 2 | -13
Cc1coc2cc3oc(=O)c(CCC(=O)N4CCC(C(=O)O)(c5ccccc5)CC4)c(C)c3cc12 | i | -4 | -1 | -8 | 0 | / | 16 | -14
COc1ccc(-c2nc3c4c(ncn3n2)-c2ccccc2CC42CCCC2)cc1 | i | -6 | -6 | 4 | 5 | -10 | 3 | -8
Cc1ccc(NC(=O)CS(=O)CC(=O)Nc2ccc(N3CCOCC3)cc2)cc1Cl (stereo not given) | i | 3 | -1 | 10 | 0 | -11 | -6 | -9
CN(C)N=Nc1ccc(S(=O)(=O)N2CCSC2C(=O)O)cc1 (stereo not given) | i | -2 | 0 | 13 | / | 10 | / | /
CCCOc1ccc(C(C(=O)OCCN(CC)CC)c2ccccc2)cc1 (stereo not given) | i | 2 | 4 | -12 | 2 | / | -7 | /
CCC(C(=O)Nc1ccc(S(=O)(=O)N2CCN(C)CC2)cc1)c1ccccc1 (stereo not given) | i | -1 | -3 | 7 | -14 | 3 | 8 | -5
COc1ccc(C(=O)n2nc(-c3ccco3)nc2SC)cc1OC | i | 2 | 6 | 6 | 45 | 23 | 18 | -18
O=C(C[C@@H]1C/C=C\CCC(=O)OC[C@@H]2CCCN2C1=O)NCCO | / | 6 | 4 | 0 | / | 4 | / | -7
COc1ccc(C(=O)NC(=S)NCc2ccccc2)cc1 | i | 5 | 5 | 3 | -4 | -115 | -1 | -18
CSCCC(NC(=O)c1ccccc1Cl)C(=O)N1CCC1 (stereo not given) | i | 1 | 2 | -1 | / | -11 | / | /
O=[N+]([O-])c1cccnc1NCCc1ccccc1 | i | 0 | -1 | 9 | -2 | -3 | 7 | -5
COc1cccc(C(=O)NC2CCN(CC(=O)NCc3ccccc3F)CC2)c1 | i | 0 | 2 | -6 | -8 | 5 | -4 | /
CCCCCCOC(=O)C(C#N)c1nc2ccccc2nc1N1CCOCC1 (stereo not given) | i | -11 | -6 | 45 | -2 | -4 | 11 | -12
COc1ccc(O)c(C(=O)c2cnc3onc(C(C)C)c3c2)c1 | i | -3 | -2 | 7 | 5 | -24 | -3 | -17
CCCCN1CC(COCc2ccccc2)Oc2cccc(OCc3ccc(OC)cc3)c2S1(=O)=O (stereo not given) | / | 0 | -4 | / | / | 27 | / | 11
CCN1C(=O)CC(NNC(=O)c2ccccc2)C1=O (stereo not given) | i | 1 | 1 | / | 2 | -2 | 1 | /
Nc1c(C(=O)NCCc2ccccc2)sc2nc(N3CCOCC3)c3c(c12)CCCC3 | i | 1 | -9 | 27 | -11 | 10 | -11 | -18
CCOc1ccccc1-c1cncc(NC)n1 | / | -4 | -1 | / | / | 8 | / | -12
Cc1cc(Br)c(NC(=O)CN2CCCC2)c(Br)c1 | i | 4 | 5 | / | 3 | -9 | -1 | -11
CCOc1ccc(C(=O)CCC(=O)N(CC)CC(=O)Nc2c(F)cccc2F)cc1 | i | -6 | -4 | 0 | / | -27 | / | -7
CC1CCN(C(=O)CC2C(=O)Nc3c2c(=O)n(C)c(=O)n3Cc2ccccc2)CC1 (stereo not given) | i | 1 | 0 | -9 | 4 | / | 3 | -16
CC(C)Sc1nc(O)c(Cc2ccccc2)c(=O)[nH]1 | i | 2 | 0 | -11 | -6 | -81 | -11 | -11
O=C(NCC1CCCO1)c1ccc(NC(=O)c2cccc(Br)c2)cc1 (stereo not given) | i | 3 | 0 | -9 | 1 | 17 | -1 | -6
COc1ccc(C2(CNC(C)=O)CCOCC2)cc1OC | i | 0 | 2 | -5 | -5 | 0 | 2 | -17
CCn1cc(C=O)c2cc(S(=O)(=O)N3CCOCC3)ccc21 | i | 1 | 1 | 4 | 0 | / | -4 | /
O=C(NC1CC1)C1=C[C@H](c2c[nH]c3ccccc23)C[C@H](OCc2ccc(CO)cc2)O1 | i | -10 | 6 | 4 | -9 | 8 | 4 | -5
Cc1nnc2sc(SCc3cccc(Cl)c3)nn2c1=O | i | -5 | -9 | ? | -5 | 6 | 3 | -8
Cc1ccc2cc(C)c3nnc(SCC(=O)c4cccs4)n3c2c1C | i | 0 | -5 | 6 | 96* | -8 | 6.4* | / | eIF4H inh retest=104*;PABP polyA inh retest=95*
CCCCn1c(=O)[nH]c(=O)c2c1nc(-c1ccc(C(F)(F)F)cc1)n2C | i | 3 | 1 | 7 | -4 | -8 | 5 | -8
CSc1ccccc1OCc1cc(C(=O)N(C)C(C)c2nc(C)cs2)no1 (stereo not given) | i | 1 | 1 | 13 | -9 | 39 | 3 | 6
O=C1C=C(c2ccc(OC(F)(F)F)cc2)C[C@@H](c2ccc(Cl)cc2)C1 | / | 3 | 2 | 58 | / | 7 | / | -10
Cc1cc(NC(=O)c2cccc(C(=O)Nc3cc(C)on3)n2)no1 | i | 2 | 2 | 1 | -15 | -19 | 8 | /
CCOC(=O)CN(C(=O)CCC(=O)Nc1cc(C)on1)C(C(=O)NC1CCCC1)c1cccnc1 (stereo not given) | i | -3 | 0 | 4 | -4 | -49 | -2 | -6
O=C(NCC(=O)N(c1cccc(F)c1)C(C(=O)NC1CCCC1)c1cccnc1)c1ccco1 (stereo not given) | i | 3 | 5 | -4 | -28 | 34 | -2 | -2
Cc1ccc(COc2ccc(C)nc2[N+](=O)[O-])cc1 | / | 5 | 3 | 11 | -1 | -75 | -8 | -19
COc1ccc(-c2cn(CCC(=O)NCc3ccc(C)cc3)c(CCN)n2)cc1 | i | 1 | 3 | -13 | / | 7 | / | -7
N#CC1=C(N)OC2=C(CC/C2=C\c2ccccc2)C1c1ccccc1 (stereo not given) | i | -226 | 0 | 3 | ? | -41 | ? | -6
COC(=O)[C@H](Cc1ccccc1)NC(=O)O[C@@H]1C(=O)c2cc(Br)ccc2O[C@H]1c1cccc(OC)c1 | i | / | / | 2 | -1 | / | -19 | /
CCn1c(=S)sc2c(=O)n(CC(=O)NC(C)CCc3ccccc3)c(C)nc21 (stereo not given) | i | 0 | 2 | -4 | -9 | -16 | 1 | -19
Cc1ccc(NC(C(N)=O)c2c(C)[nH]c(=O)[nH]c2=O)cc1 (stereo not given) | i | -6 | -1 | 1 | 0 | 7 | -9 | -2
Cc1ccc2c(c1)N(CC(=O)NCCCN1C(C)CCCC1C)C(=O)c1cccnc1O2 (stereo not given) | i | 1 | 3 | -10 | 3 | -14 | 10 | -14
COC(=O)[C@]1(Cc2ccccc2)N[C@H](CN(C)C(=O)Nc2ccc(Cl)cc2)[C@@H]2C(=O)N(C)C(=O)[C@@H]21 | / | 2 | 2 | / | / | -44 | / | 5
Cc1ccc(C)c(NC(=O)c2cc3ccccn3n2)c1 | i | 4 | 2 | 3 | -14 | -112 | -17 | -22
COc1ccccc1NC(=S)N1CCN(c2ccccc2F)CC1 | i | -1 | 0 | -9 | -5 | -17 | 12 | -32
NC(=O)CSc1nnc(-c2ccc(S(=O)(=O)N3CCCC3)cc2)o1 | i | 0 | -1 | 5 | -3 | / | -13 | 12
CCOC(=O)c1c(-c2ccc(C)o2)csc1NC(=S)NC(=O)c1cccs1 | i | 5 | -1 | 56 | 7 | -12 | -1 | -3
O=C(Nc1ccon1)c1ccc(F)c(S(=O)(=O)N2CCCCC2)c1 | i | 3 | -1 | 4 | 0 | 17 | -6 | -10

Quoted at random: two records from the list, in no set order.
SMILES | Rce1 inh | MT1-MMP act inh | MT1-MMP act inh RFP | CSC inhib | eIF4H inh | HIV Env fusion | PABP polyA inh | UUG fidelity | others
O=C(NCC(=O)N(c1cccc(F)c1)C(C(=O)NC1CCCC1)c1cccnc1)c1ccco1 (stereo not given) | i | 3 | 5 | -4 | -28 | 34 | -2 | -2
Cc1cc(NC(=O)c2cccc(C(=O)Nc3cc(C)on3)n2)no1 | i | 2 | 2 | 1 | -15 | -19 | 8 | /
